# p47phox inh – p47phox (human) inhibition; P14598; p47phox/p22phox peptide binding, fluorescence polarization, 2 h; inhibition, % at 24.7 µM; 220,000 compounds, 0.53% hits; AID 1274;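 active means inhibition above about 30%, limit read from the data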;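 further: 0% = p47phox with labelled peptide and 100% = labelled peptide alone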
# 14-3-3 Bad PPI – disrupts binding of bovine 14-3-3 zeta to phospho-Bad peptide | P63103 | TR-FRET 14-3-3zeta/Dy647-pBad peptide displacement, 1 h | inhibition, % at 21.7 µM | 220,000 compounds, 0.71% hits;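 active means inhibition above about 70%, limit read from the data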;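 further: 0% = full 14-3-3 plus peptide FRET controls and 100% = background without 14-3-3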
# Target sequence (P63103 whole entry, looked up): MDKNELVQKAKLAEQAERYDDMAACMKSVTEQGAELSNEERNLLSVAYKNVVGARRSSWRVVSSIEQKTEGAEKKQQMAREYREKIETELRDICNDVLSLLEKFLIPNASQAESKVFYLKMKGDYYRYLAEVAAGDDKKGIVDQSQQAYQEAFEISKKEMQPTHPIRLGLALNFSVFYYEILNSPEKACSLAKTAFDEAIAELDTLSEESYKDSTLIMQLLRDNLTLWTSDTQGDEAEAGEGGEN
# EBV gp42 inh – blocks Epstein-Barr virus glycoprotein 42 binding; inhibition, % (tested at 21.74 µM); 220,000 compounds, 0.42% hits; Q1HVG2; Fluorescence polarization binding assay, mP read-out; AID 1085; in the data active means inhibition above about 50%
# TbHK1 inh – blocks Trypanosoma brucei hexokinase 1 activity; recombinant TbHK1, G6PDH-coupled NADH A340; inhibition, % at 10 µM; 220,000 compounds, 0.11% hits;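 active means inhibition of 50% or more in the single-dose primary screen; inactive means inhibition below 50%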
# Hck-Nef inh – inhibitors of human Hck kinase activated by Nef; AID 463187; Recombinant Hck-YEEI plus Nef, Z-Lyte FRET kinase assay; P08631; 220,000 compounds, 0.68% hits; inhibition, % at 20 µM;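 active means Hck-Nef kinase inhibition above about 50%, limit read from the data; inactive means inhibition below that limit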;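 further: 0% = DMSO with Hck plus Nef and 100% = Hck alone without Nef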
# Target sequence (P08631 whole entry, looked up): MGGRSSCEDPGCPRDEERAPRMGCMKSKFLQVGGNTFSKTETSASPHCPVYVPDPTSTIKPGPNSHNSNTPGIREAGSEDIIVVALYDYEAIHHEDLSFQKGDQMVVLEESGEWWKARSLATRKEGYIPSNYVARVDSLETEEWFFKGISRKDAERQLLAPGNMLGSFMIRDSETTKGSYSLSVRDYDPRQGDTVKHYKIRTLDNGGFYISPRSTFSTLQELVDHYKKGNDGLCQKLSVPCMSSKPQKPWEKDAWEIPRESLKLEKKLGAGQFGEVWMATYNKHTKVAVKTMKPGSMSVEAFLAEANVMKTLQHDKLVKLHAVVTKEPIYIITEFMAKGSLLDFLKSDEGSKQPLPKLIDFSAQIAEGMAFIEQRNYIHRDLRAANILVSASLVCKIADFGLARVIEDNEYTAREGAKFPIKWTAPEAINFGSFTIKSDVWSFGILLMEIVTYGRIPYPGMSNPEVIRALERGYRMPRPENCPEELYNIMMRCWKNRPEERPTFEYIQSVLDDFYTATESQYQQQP
# zVAD death inh – L929 zVAD cell death inhibition | L929 zVAD necroptosis rescue, ATP luminescence, 24 h; with zVAD 60 µM | viability rescue, % at 10 µM | 220,000 compounds, 0.38% hits;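 active means activation, scaled between plate controls, above about 75%, limit read from the data; inactive means activation under that limit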;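 further: 0% = zVAD with DMSO and 100% = DMSO alone without zVAD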
# Mdm2 ligase inh – inhibitors of human Mdm2 E3 ubiquitin ligase. Q00987. cell-based MDM2 ubiquitination luciferase reporter, 2 h; 0 = plate control, 100 = twice control, blank-subtracted. signal enhancement, % at 5 µM. 210,000 compounds, 0.11% hits;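 active means signal enhancement of 30% or more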;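 further: luminescence tracks abundance of the self-degrading MDM2-luciferase fusion protein; higher signal means inhibition of MDM2 E3 ligase activity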
#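 test system = mammalian cells stably expressing self-ubiquitinating, self-degrading MDM2 E3–luciferase fusion | quantity = 2000 cells/well | incubation = cell settling 4 h, compound treatment 2 h, both 37 °C | signal = luminescence with SteadyLite reagent, 15 min at room temperature | evaluation = % enhancement relative to plate controls after blank subtraction | benchmarks = plate controls and plate blanks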
# An asterisk follows results filed as active; x = not tested or not shown; [ ] = another dose, or the depositor's remark. An excerpt; rates above refer to the full screens.
# Keys: A = p47phox inh; B = 14-3-3 Bad PPI; C = EBV gp42 inh; D = TbHK1 inh; E = Hck-Nef inh; F = zVAD death inh; G = Mdm2 ligase inh
1: CCCCCC1CC1C(=O)N/N=C/c1ccc(N(C)C)cc1 (stereo not given)
  A: -33; B: -11; C: 1; D: -10; E: 1; F: 0.5; G: -8
2: CCC(=O)N1CCc2cc(S(=O)(=O)NC(C(=O)NCc3ccc(F)cc3)C(C)C)ccc21 (stereo not given)
  A: -9; B: 4[fluorescence artefact?]; C: -7; D: 0; E: 2; F: 2.4; G: 0
3: CC(C)OCCCn1c(=S)[nH]c2ccc(N3CCOCC3)cc2c1=O
  A: -13; B: -5; C: -3; D: -10; E: -6; F: 0.8; G: -6
4: Cc1ccc(S(=O)(=O)Nc2ccc(=O)n(Cc3ccc(Cl)c(Cl)c3)c2)cc1
  A: -5; B: -7; C: -6; D: -2; E: 1; F: -0.1; G: -35
5: O=C(CCCCCn1c(=S)[nH]c2ccccc2c1=O)NCc1ccc2c(c1)OCO2
  A: -15; B: 13[fluorescence artefact?]; C: -7; D: -13; E: 1; F: 0.1; G: -10
6: Cc1csc(=S)n1-c1ccccc1
  A: -2; B: 5; C: 2; D: -11; E: 0; F: 0.1; G: 1
7: CCCn1nc2cc(C(=O)NCc3ccccc3)ccc2c1OCC
  A: -19; B: 1; C: -18; D: -4; E: 1; F: 2.4; G: -1
8: Cc1cccc(NC(=O)CSc2ncnc3nc[nH]c23)c1C
  A: -11; B: 6[fluorescence artefact?]; C: -34; D: -3; E: 0; F: 0.3; G: -1
9: Cn1c(SCC(=O)N2CCCC2)nnc1-c1ccc(S(=O)(=O)N2CCCC2)cc1
  A: -1; B: 14; C: -24; D: 0; E: 0; F: 0.8; G: -1
10: Cc1sc2ncnc(SCC(=O)N3CCN(C(=O)c4ccco4)CC3)c2c1C
  A: -8; B: 1; C: -16; D: -1; E: -9; F: -1.3; G: -4
11: O=C(O)c1ccc(S(=O)(=O)NC2CCCc3ccccc32)cc1 (stereo not given)
  A: -12; B: 7[fluorescence artefact?]; C: -13; D: 2; E: 2; F: 0.2; G: -11
12: FC(F)(F)c1cc(-c2ccccc2)nc(N2CCOCC2)n1
  A: -6; B: -2; C: 4; D: 0; E: 0; F: -0.2; G: -10
13: O=C1c2ccccc2NC(c2ccncc2)N1c1ccccn1 (stereo not given)
  A: 2; B: 55; C: 2; D: -3; E: 6; F: 1.5; G: -4
14: COc1ccc(C2NC(=O)c3sc4nc(C)c(C(C)=O)c(-c5ccc(Cl)cc5)c4c3N2)cc1 (stereo not given)
  A: 2; B: -5[fluorescence artefact?]; C: -19; D: -5; E: -1; F: 1.1; G: -8
15: O=C(Nc1ccc(F)cc1)c1cnc(-c2ccccc2)nc1-c1ccccc1
  A: 0; B: 11; C: -8; D: 2; E: 0; F: 0.4; G: -7
16: Cc1ccccc1C(=O)N/C(=C/c1ccc(-c2cccnc2Cl)o1)C(=O)NCCCN1CCN(C)CC1
  A: -14; B: -10; C: -11; D: -51; E: 1; F: 0.0; G: -12
17: CC(C)Sc1nc(O)c(Cc2ccccc2)c(=O)[nH]1
  A: -20; B: -13[fluorescence artefact?]; C: -6; D: -4; E: 0; F: 0.1; G: x
18: CC(C)C(NC(=O)c1ccc(C(C)(C)C)cc1)C(=O)O (stereo not given)
  A: -15; B: -3[fluorescence artefact?]; C: -19; D: 3; E: 1; F: 0.3; G: 1
19: CCc1ccc(N(C(=O)c2snc(C(N)=O)c2N)C(C(=O)NCCC(C)C)c2c[nH]c3ccccc23)cc1 (stereo not given)
  A: -13; B: 0; C: -2; D: 4; E: -1; F: 1.7; G: 0
20: CCOC(=O)c1c(NC(=O)c2c(Br)cnn2C)c(C#N)nn1-c1ccccc1
  A: -1; B: 0; C: -1; D: -2; E: -1; F: -0.1; G: -5
21: CN(C)c1ccc(/C=N/N2C(=S)SC(C)(C)C2N(O)C(=O)Nc2ccc([N+](=O)[O-])cc2)cc1 (stereo not given)
  A: -7; B: -7[fluorescence artefact?]; C: -2; D: -21; E: 0; F: 0.0; G: 21
22: CCOC(=O)CSc1nc2ccccc2c(=O)n1CC1CCC(C(=O)NCc2ccco2)CC1 (stereo not given)
  A: -9; B: -10[fluorescence artefact?]; C: -75; D: 2; E: 2; F: 0.1; G: -19
23: CCOc1ccc2nc(NC(=O)c3ccc(S(=O)(=O)N4CCOCC4)cc3)sc2c1
  A: -12; B: -3; C: -7; D: 1; E: 6; F: -0.1; G: -18
24: CCn1c(SCC(=O)OC)nc2sc3c(c2c1=O)CCC3
  A: -7; B: -10; C: 6; D: -5; E: 4; F: 2.8; G: 8
25: CCCc1nc(SCC(=O)Nc2nnc(CC)s2)c2c(C)c(C)sc2n1
  A: -12; B: -6; C: 1; D: -9; E: 3; F: -0.3; G: 1
26: CCN(CC)c1ccc2cc(C(C)=O)c(=O)oc2c1
  A: -18; B: 5[fluorescence artefact?]; C: -198; D: -1; E: 9; F: 0.5; G: -8
27: COc1ccc(-c2nc(CS(=O)(=O)CC(=O)NCCc3cc(OC)ccc3OC)c(C)o2)cc1
  A: -12; B: -2; C: -13; D: -6; E: -2; F: 0.4; G: -13
28: O=c1[nH][nH]c(C(F)(F)F)c1C=Nc1cccc(Cl)c1
  A: 2; B: 47[fluorescence artefact?]; C: -7; D: -3; E: 1; F: 0.8; G: 11
29: Cc1c(NC(=S)NC(=O)C(c2ccccc2)c2ccccc2)cccc1C(=O)O
  A: -13; B: -7[fluorescence artefact?]; C: -13; D: -1; E: 0; F: 0.7; G: -6
30: CCOc1ccc(/C(O)=C2/C(=O)C(=O)N(CC3CCCO3)C2c2ccc(C)o2)cc1 (stereo not given)
  A: -11; B: 22; C: -13; D: -18; E: -1; F: 0.0; G: -4
31: CCCCCNCc1cccc(Br)c1
  A: -9; B: -2; C: -8; D: -3; E: -1; F: 0.3; G: 8
32: Cc1cc([N+](=O)[O-])nn1CC(=O)NNC(=S)Nc1ccc([N+](=O)[O-])cc1
  A: -8; B: x; C: 5; D: -13; E: 2; F: 0.0; G: -13
33: O=C(Cn1c(O)c(/C=C2\C=Nc3ccccc32)sc1=O)Nc1ccc2c(c1)OCO2
  A: -31; B: 13; C: 8; D: 4; E: 7; F: -0.2; G: 4
34: CCOC(=O)Cn1nc(C)c2c1CCCC2=O
  A: -8; B: 15; C: -3; D: -6; E: 0; F: 0.1; G: -15

# Ten entries out of the list, arranged by length of the SMILES, low to high:
# Keys: A = p47phox inh; B = 14-3-3 Bad PPI; C = EBV gp42 inh; D = TbHK1 inh; E = Hck-Nef inh; F = zVAD death inh; G = Mdm2 ligase inh
34: CCOC(=O)Cn1nc(C)c2c1CCCC2=O
  A: -8; B: 15; C: -3; D: -6; E: 0; F: 0.1; G: -15
26: CCN(CC)c1ccc2cc(C(C)=O)c(=O)oc2c1
  A: -18; B: 5[fluorescence artefact?]; C: -198; D: -1; E: 9; F: 0.5; G: -8
24: CCn1c(SCC(=O)OC)nc2sc3c(c2c1=O)CCC3
  A: -7; B: -10; C: 6; D: -5; E: 4; F: 2.8; G: 8
28: O=c1[nH][nH]c(C(F)(F)F)c1C=Nc1cccc(Cl)c1
  A: 2; B: 47[fluorescence artefact?]; C: -7; D: -3; E: 1; F: 0.8; G: 11
25: CCCc1nc(SCC(=O)Nc2nnc(CC)s2)c2c(C)c(C)sc2n1
  A: -12; B: -6; C: 1; D: -9; E: 3; F: -0.3; G: 1
29: Cc1c(NC(=S)NC(=O)C(c2ccccc2)c2ccccc2)cccc1C(=O)O
  A: -13; B: -7[fluorescence artefact?]; C: -13; D: -1; E: 0; F: 0.7; G: -6
22: CCOC(=O)CSc1nc2ccccc2c(=O)n1CC1CCC(C(=O)NCc2ccco2)CC1 (stereo not given)
  A: -9; B: -10[fluorescence artefact?]; C: -75; D: 2; E: 2; F: 0.1; G: -19
33: O=C(Cn1c(O)c(/C=C2\C=Nc3ccccc32)sc1=O)Nc1ccc2c(c1)OCO2
  A: -31; B: 13; C: 8; D: 4; E: 7; F: -0.2; G: 4
30: CCOc1ccc(/C(O)=C2/C(=O)C(=O)N(CC3CCCO3)C2c2ccc(C)o2)cc1 (stereo not given)
  A: -11; B: 22; C: -13; D: -18; E: -1; F: 0.0; G: -4
27: COc1ccc(-c2nc(CS(=O)(=O)CC(=O)NCCc3cc(OC)ccc3OC)c(C)o2)cc1
  A: -12; B: -2; C: -13; D: -6; E: -2; F: 0.4; G: -13
